CBX7 inh – blocks human CBX7 binding to H3K27me3 peptide; AlphaScreen His6-CBX7 / biotin-H3K27me3 peptide binding; stronger effect = lower value; normalised signal (fraction of DMSO) (test concentration not listed); 1.1% of 66,000 active; in the data active = normalised signal below about 0.5;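 note: 100 nL library stock added to about 20 µL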
Target sequence (O95931 whole entry, looked up): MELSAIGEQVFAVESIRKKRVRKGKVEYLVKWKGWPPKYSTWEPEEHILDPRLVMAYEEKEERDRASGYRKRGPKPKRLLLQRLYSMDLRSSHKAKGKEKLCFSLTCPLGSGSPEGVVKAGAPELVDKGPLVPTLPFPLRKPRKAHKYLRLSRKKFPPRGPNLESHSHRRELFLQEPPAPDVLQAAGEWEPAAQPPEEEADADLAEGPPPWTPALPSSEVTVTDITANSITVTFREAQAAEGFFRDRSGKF
CBX7 inh z-score – further read-out of CBX7 inh, marked with its call; z-score; measured here: z-score of CBX7 signal; some inactives read as strong as hits; reference of the scale not given here;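 same signal on another scale; lower means less binding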
* = called active by the depositor; & = joins results of further samples. Some of the compounds tested (hit frequency here may not be typical).

SMILES	CBX7 inh	CBX7 inh z-score
CCC1Oc2ccc(C)cc2N(CC(=O)NCCCN(CC(C)C)CC(C)C)C1=O (centres undefined)	1.03	0.875
Cc1ccc(N2C(=O)CC(Cc3ccc(Cl)cc3)C2=O)cc1 (centres undefined)	0.941	-0.434
COc1ccc(C(=O)Nc2ccccc2-c2nc3ccccc3s2)cc1	1.01	0.164
O=C(COc1ccc(Cl)cc1)NCc1nnc(SCC(=O)Nc2cccc(F)c2)o1	0.94	-0.981
Cc1onc(-c2ccccc2Cl)c1C(=O)Nc1nn[nH]n1	0.545	-0.604
Cc1ccc(CCNC(=O)c2ccc(Cl)c(NC3=NC4CS(=O)(=O)CC4S3)c2)cc1 (centres undefined)	0.987	-0.134
COc1ccc(C2C(C(=O)Nc3ccc(F)cc3)c3cc(OC)c(OC)cc3C(=O)N2C)cc1OC (centres undefined)	1.1	1.04
COc1ccc(N2CCN(CC(O)COc3ccc(C(C)(C)C)cc3)CC2)cc1 (centres undefined)	1.02	0.18
Cc1nc2ccc(S(=O)(=O)NC(CC(C)C)C(=O)N3CCN(c4ccccc4)CC3)cc2s1 (centres undefined)	0.922	-2.37
O=C(O)c1ccc2c(c1)N(Cc1ccccc1F)C(=O)c1ccccc1S2=O (centres undefined)	1.11	4.46
O=C(CSc1nnc(CNC(=O)c2c(F)cccc2Cl)o1)Nc1ccccc1F	0.939	-0.999
CCCc1cc(C(=O)Nc2ccc(C#N)cc2)no1	1	0.00307
O=C(CSc1ccc2nnc(-c3ccccc3)n2n1)N1CCc2ccccc21	1.05	1.82
COc1ccccc1CNC(=O)c1ccc2c(c1)N(Cc1cccc(C)c1)C(=O)CS2	1.01	0.446
Cc1cccn2cc(-c3ccc(NS(=O)(=O)c4ccc(Br)cc4)cc3)nc12	0.983	-0.254
COC(=O)c1c(NC(=O)CSc2nncn2C)sc2c1CCC(C(C)(C)C)C2 (centres undefined)	0.931	-1.7
Cc1ccc(-n2ncc3c(Nc4cccc(C)n4)ncnc32)c(C)c1	1.1	1.64
COCCCNC(=O)c1c(-c2ccccc2)noc1C	1.05	1.95
O=C(O)c1ccc2c(c1)NC(=O)C(N1CCN(c3ccc(Cl)cc3)CC1)S2 (centres undefined)	0.85	-3.73
O=C(CN1C(=O)COc2ccc(Cl)cc21)NCCc1ccccc1	1.07	0.819

5 records drawn at random from the list so far, as already listed:
SMILES	CBX7 inh	CBX7 inh z-score
CCC1Oc2ccc(C)cc2N(CC(=O)NCCCN(CC(C)C)CC(C)C)C1=O (centres undefined)	1.03	0.875
Cc1cccn2cc(-c3ccc(NS(=O)(=O)c4ccc(Br)cc4)cc3)nc12	0.983	-0.254
O=C(CN1C(=O)COc2ccc(Cl)cc21)NCCc1ccccc1	1.07	0.819
COc1ccccc1CNC(=O)c1ccc2c(c1)N(Cc1cccc(C)c1)C(=O)CS2	1.01	0.446
COCCCNC(=O)c1c(-c2ccccc2)noc1C	1.05	1.95

(continued)
SMILES	CBX7 inh	CBX7 inh z-score
OC1(c2ccccc2)CCN(Cc2ccccc2)[C@@H]2CCCC[C@@H]21 (some centres undefined)	0.819&0.778	-2.86&-1.04
O=C(NC1CCCC1)C1c2cccn2CC(=O)N1C1CC1 (centres undefined)	1.06	0.325
CCN(CCNC(=O)CN1C(=O)COc2ccc(S(=O)(=O)N3CCCC3)cc21)c1ccccc1	0.955	-1.47
COc1ccc(C2=C(Cl)C=C(c3ccc(F)cc3)c3ccccc3O2)cc1	0.923	-1.8
Cc1c(C(=O)Nc2ccccc2Cl)oc2ccc(S(=O)(=O)N3CCCCC3)cc12	1.03	1.22
Cc1ccc(N2C(=O)C(Oc3ccccc3C)C2c2ccccc2Cl)cc1C (centres undefined)	1.08	1.83
C=CCN1C(=O)CSc2ccc(C(=O)NC3CCCc4ccccc43)cc21 (centres undefined)	1.01	0.279
CCc1nnc(NC(=O)c2ccc(OC)c(Br)c2)s1	1.02	0.159
O=C(NCc1ccccc1Cl)c1cnn2c(C(F)(F)F)cc(-c3cccs3)nc12	1.04	0.237
O=C(NCc1ccc(Cl)cc1)Nc1ccc2snnc2c1	1.04	1.45
COc1ccc(NC(=O)C2c3ccccc3C(=O)N3CCc4ccccc4C23)c(OC)c1 (centres undefined)	1.07	1.17
CCc1ccc(N(CC(=O)NC2CCCC2)S(=O)(=O)c2c(C)noc2C)cc1	0.944	-1
CC1CCN(c2nc3ccc(C(=O)NCCCN4CCC(N5CCCCC5)CC4)cc3s2)CC1	2.23	11.5
CCc1ccc(NC(=O)CSc2nccn2-c2ccc(Cl)cc2)cc1	0.501	-1.76
CCOc1ccc(C(=O)Nc2ccc3oc(-c4ccncc4)nc3c2)cc1Br	1.02	0.333
Cc1ccc(S(=O)(=O)Nc2nc3ccccc3nc2Nc2cccc(Cl)c2)cc1	0.893	-3.08
Cc1ccc(NC(=O)C2CCCN(S(=O)(=O)c3cnc[nH]3)C2)cc1Cl (centres undefined)	1.04	1.84
CN(Cc1ccccc1)C(=O)c1cnn(-c2ccccc2)c1-n1cccc1	0.972	-0.927
O=C1CC(NCC(O)c2ccccc2)C(=O)N1c1ccc(Cl)cc1 (centres undefined)	1.05	0.695
CC1(C)CC(=O)C2=C(C1)NC(=O)CC2c1ccc(-c2ccccc2)cc1 (centres undefined)	0.978	-0.146
COc1ccc(-c2nc3ccccc3n2Cc2ccc(C)cc2)cc1OC	0.78	-1.67
COc1ccccc1NC(=O)CSc1nnc(CNC(=O)c2ccc(OC)c(OC)c2)o1	0.865	-2.2
COc1ccc(C(=O)CC2(O)C(=O)N(Cc3ccccc3C)c3ccccc32)cc1OC (centres undefined)	0.838	-0.406
O=C(O)C1CC=CCC1C(=O)N1CCN(c2nc(-c3ccccc3Cl)c3cc(Br)ccc3n2)CC1 (centres undefined)	1.13	1.32
O=C(O)c1ccc2c(c1)NC(=O)C(CS(=O)(=O)Cc1ccccc1F)N2 (centres undefined)	1.04	1.1
O=C1CC(c2nc3ccccc3[nH]2)CN1c1cccc(C(F)(F)F)c1 (centres undefined)	1.2	1.45
COc1ccc(CCNc2nc(-c3ccc(C)cc3)cc(C(F)F)n2)cc1OC	1.08	1.41
O=C(NCCc1ccc(Cl)cc1)C1CCN(S(=O)(=O)c2cccs2)CC1	1.06	1.27
Cc1cc(N2CCC(N(C)C3CCCC3)CC2)nc2cc(O)ccc12	0.936	-2.57
CC1CCC(NC(=O)C2(C)CCC(=O)N2C(C)c2ccccc2)CC1 (centres undefined)	1.17	1.34
COc1ccc(C(=O)Nc2c3c(nn2-c2cccc(C)c2C)CS(=O)(=O)C3)cc1OC	0.84	-1.84
CCC(Cc1ccccc1)NC(=O)C1CCN(C(=O)c2cc3sccc3n2C)CC1 (centres undefined)	0.983	-0.313
Fc1ccccc1-c1nc(NCCN2CCOCC2)c2ccccc2n1	0.962	-0.945
O=C(Nc1ccc(Cl)c(C(F)(F)F)c1)C1CCN(S(=O)(=O)c2cccc3cccnc23)CC1	0.95	-0.645
O=C(NCCCN1CCN(Cc2ccccc2)CC1)C1CCN(c2nnc(-n3cccc3)s2)CC1	1.85	8.96
CCOc1ccc(N2CC(C(=O)NCc3ccccc3C)CC2=O)cc1 (centres undefined)	1.05	0.0488
COc1ccc(-c2cc3ccccc3n2CC(O)CN2CCN(Cc3ccccc3)CC2)cc1 (centres undefined)	0.792	-4.27
O=C(Cc1ccc(NC2=NC3CS(=O)(=O)CC3S2)cc1)NC1CCN(Cc2ccccc2)CC1 (centres undefined)	0.966	-0.762
Cc1ccc(Cc2c(C)nc3c(C(=O)NCCN4C(C)CCCC4C)c[nH]n3c2=O)cc1 (centres undefined)	1.14	5.54
COc1cccc(C(=O)Nc2cccc(-c3cn4ccccc4n3)c2)c1	0.8	-3.17

Entries from the list above that have bromine, in the order listed:
SMILES	CBX7 inh	CBX7 inh z-score
Cc1cccn2cc(-c3ccc(NS(=O)(=O)c4ccc(Br)cc4)cc3)nc12	0.983	-0.254
CCc1nnc(NC(=O)c2ccc(OC)c(Br)c2)s1	1.02	0.159
CCOc1ccc(C(=O)Nc2ccc3oc(-c4ccncc4)nc3c2)cc1Br	1.02	0.333
O=C(O)C1CC=CCC1C(=O)N1CCN(c2nc(-c3ccccc3Cl)c3cc(Br)ccc3n2)CC1 (centres undefined)	1.13	1.32

The list goes on:
SMILES	CBX7 inh	CBX7 inh z-score
CN(CCCNC(=O)CC1Oc2ccccc2NC1=O)C1CCCCC1 (centres undefined)	1	0.0328
CCC1Oc2ccc(C)cc2N(CC(=O)N2CCN(c3cccc(OC)c3)CC2)C1=O (centres undefined)	0.979	-0.238
Cc1ccccc1Nc1c(-c2c[nH]c3ccccc23)nc2ccc(Br)cn12	0.532	-12.5
CCOc1cc(-c2ccc3c(c2)OCO3)cc(=O)c2c(C)oc(C)c12	0.904	-0.196
CCOc1ccc(Nc2nnc(Cc3ccc(OC)cc3)c(=O)[nH]2)cc1	1.02	0.701
CCOc1ccccc1NC1c2ccccc2C(=O)N1Cc1ccccc1Cl (centres undefined)	0.925	-0.0749
Cc1cc(N2CCN(c3ncccn3)CC2)nc2ccc(NC(=O)C3CC3)cc12	1.02	1.08
CCCCSc1oc(-c2ccc(C)cc2)nc1S(=O)(=O)c1ccccc1	1.18	6.07
O=c1c2cccnc2n(Cc2ccccc2F)c(=O)n1Cc1ccccc1Cl	1.08	1.5
CC(C)Cn1c(CCCNC(=O)c2ccc(F)cc2)nc2ccccc21	1.02	0.386
Cc1nc2cc(-c3cccc(F)c3)nn2c(C)c1CCC(=O)Nc1ccc2c(c1)OCO2	0.57	-8.57
Cc1ccc(Nc2nc(C)nc3sc(C)cc23)c(Br)c1	1.05	2.45
COc1ccc(-c2[nH]c(-c3ccc(C)cc3)nc2SCC(=O)Nc2ccc(F)cc2)cc1OC	0.756	-11.6
COc1cccc(-c2nc(SCC(=O)NCC3CCCO3)c(-c3ccc(Cl)cc3)[nH]2)c1 (centres undefined)	1.04	0.608
CC(C(=O)NCc1ccc(Cl)cc1)C1Sc2ccccc2N(Cc2ccc(F)cc2Cl)C1=O (centres undefined)	0.992	-0.218
O=C(CSc1nc(-c2ccc3c(c2)OCO3)cn1-c1ccccc1)Nc1ccccc1	0.91	-2.96
CCOc1cccc(C(=O)Nc2c(C(=O)c3ccc(Cl)cc3)oc3ccccc23)c1	1.43	1.53
CCCCNC(=O)CSc1nc(NCc2ccccc2)c2ccccc2n1	1.08	0.586
COc1cccc(-c2nc(CS(=O)(=O)CC(=O)NCCCN3CCCCCC3)c(C)o2)c1	0.961	-1.09
Cc1ccc2cc(CCNC(=O)c3ccc(F)c(F)c3)c(=O)[nH]c2c1C	1.14	0.902
COCCn1c(SC(C)C)nnc1-c1c[nH]c2ccccc12	1.13	0.852
Cc1ccc(-n2cnc3cc(C(=O)NC4CCCCCC4)ccc32)cc1Cl	0.999	-0.0251
CCOC(=O)c1ccc(NC(=O)CSc2nnc(CNC(=O)c3cccs3)o2)cc1	0.992	-0.228
CCOC(=O)c1cnc2c(C(F)(F)F)cccc2c1Nc1cccc(O)c1	1.04	2.27
COc1ccccc1CNC(=O)c1cc2sccc2n1Cc1ccc(F)cc1	1.01	0.321
O=C(Nc1ccccc1-c1nc2ccccc2[nH]1)c1ccc(S(=O)(=O)N2CCCC2)cc1	1.11	3.02
CCC(=O)NCCc1cc2c(C)ccc(C)c2[nH]c1=O	0.968	-0.49
CCC(C(=O)NC1CCCC1)n1c(SCc2ccc(C)cc2)nc2ccncc21 (centres undefined)	0.948	-1.57
Cc1ccc(N2CC(c3nc4ccccc4n3CCC(C)C)CC2=O)c(C)c1 (centres undefined)	0.921	-1.52
COc1ccc(Cl)cc1NC(=O)CC1Oc2ccccc2NC1=O (centres undefined)	1.16	0.916
CCc1cc(-c2[nH]ncc2-c2ccc(OC)cc2)c(O)cc1OC	0.887	-4.04
Cc1ccccc1Nc1c(-c2ccc(N3CCOCC3)cc2)nc2ccc(Cl)cn12	0.905	-0.966
COc1ccc(Cc2nc3c4c5c(sc4ncn3n2)CCCC5)cc1OC	1	0.0415
O=C1CC(c2ccccc2)Cc2nc(NCc3ccccc3)ncc21 (centres undefined)	0.999	-0.0377
CCOc1ccc(-c2cc(C(=O)NC3CCCCC3C)c3ccccc3n2)cc1 (centres undefined)	1.12	2.27
Cc1ccccc1Nc1c(-c2ccncc2)nc2ccc(Cl)cn12	1.09	2.3
FC(F)(F)c1nc(Nc2cc(Cl)ccc2Cl)sc1-c1ccccc1	1.03&1.24	0.436&5.96
CCCCn1c(C2CC(=O)N(c3cc(Cl)ccc3OC)C2)nc2ccccc21 (centres undefined)	1.08	1.62
Cc1cc(=O)n2nc(N3CCC(C(=O)NCC(C)c4ccccc4)CC3)sc2n1 (centres undefined)	1.19	1.82
CCOC(=O)C1CCN(C(=O)c2sc3ncnc(N4CCC(C)CC4)c3c2C)CC1	1.04	0.552
COc1ccc(Br)cc1CNC(=O)C(C)N1C(=O)COc2ccc(Cl)cc21 (centres undefined)	1.04	0.0398
COCCNC(=O)CSc1nc(-c2ccccc2)[nH]c1-c1ccc(C)cc1	0.978	-0.369
Cc1ccc(CCNC(=O)CN2CCN(Cc3ccccc3F)C2=O)cc1	1.1	1.34
Cc1ccc(Nc2c(-c3c(F)cccc3Cl)nc3ccc(Cl)cn23)cc1	0.742	-2.07

In the list so far, these contain a tert-butyl group:
SMILES	CBX7 inh	CBX7 inh z-score
COc1ccc(N2CCN(CC(O)COc3ccc(C(C)(C)C)cc3)CC2)cc1 (centres undefined)	1.02	0.18
COC(=O)c1c(NC(=O)CSc2nncn2C)sc2c1CCC(C(C)(C)C)C2 (centres undefined)	0.931	-1.7

Assay outcomes deposited in PubChem by several laboratories.
